# Assay outcomes from PubChem.
# Ecoli rRNA inh – selective bacterial rRNA inhibition in E. coli | E. coli WT GFP vs humanized-ribosome RFP mutants, fluorescence, 24 h; stronger effect = lower value; DMSO median 0, no signal -100 | GFP signal change (wild-type ribosome), % (concentration not given with the values) | actives 1.6% (n = 350,000) | AID 720706;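 active means significant combined selectivity score with lowered wild-type GFP, culture density cut under 30%, mutant RFP and density less affected; inactive means any of these conditions unmet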; further: one replicate is shown; some compounds called inactive have numbers as strong as hits
# Beta cell apopt – beta cell apoptosis inhibition; INS-1E cytokine-induced death, ATP luminescence, 48 h; percent of positive-control rescue, neutral wells zero; protection from apoptosis, % (test concentration not listed); actives 0.8% (n = 300,000);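 active means all replicates at 75% or more, or half of them and the mean; inconclusive means half reach 75% but not the mean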;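 further: 0% = cytokine-treated negative control wells and 100% = positive control rescue; higher means more ATP so stronger rescue from cytokine killing; wells of about 40 µL received 100 nL stock; the first replicate is given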
# MLL AF4-AF9 inh – inhibitors of human MLL-AF4/AF9 interaction; P42568; AlphaScreen, biotin-AF4 peptide binding to FLAG-AF9; inhibition, % at 10 µM; actives 0.47% (n = 350,000); AID 651704;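 active means every replicate reaching a set inhibition limit, whatever the replicate mean, cut at about 25% in these data; inconclusive means mean inhibition reaches that limit but some replicates miss it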;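 further: 0% = plate neutral control median and 100% = total signal loss; the record names both 10 and 1 µM as test concentration; the first replicate is given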
# Target sequence (P42568 whole entry, looked up): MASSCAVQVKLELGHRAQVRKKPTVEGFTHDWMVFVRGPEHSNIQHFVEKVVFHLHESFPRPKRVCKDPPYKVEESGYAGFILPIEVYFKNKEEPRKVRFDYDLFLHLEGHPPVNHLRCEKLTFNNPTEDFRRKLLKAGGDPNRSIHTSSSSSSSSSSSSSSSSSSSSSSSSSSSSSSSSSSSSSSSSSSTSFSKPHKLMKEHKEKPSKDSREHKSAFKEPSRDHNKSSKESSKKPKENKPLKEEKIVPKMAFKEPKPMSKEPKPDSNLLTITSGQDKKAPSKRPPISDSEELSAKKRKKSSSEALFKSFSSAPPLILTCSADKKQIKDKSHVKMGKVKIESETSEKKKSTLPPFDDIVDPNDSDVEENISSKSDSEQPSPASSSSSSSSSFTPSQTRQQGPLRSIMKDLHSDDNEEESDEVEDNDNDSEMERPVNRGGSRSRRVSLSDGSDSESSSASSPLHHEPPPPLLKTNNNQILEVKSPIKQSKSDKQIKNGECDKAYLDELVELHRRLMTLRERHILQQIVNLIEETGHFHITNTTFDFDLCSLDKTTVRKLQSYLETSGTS
# FGF22 binding – shifts melting point of recombinant human FGF22; Q9HCT0; recombinant FGF22 thermal shift, SYPRO orange fluorescence; percent of sucrose octasulfate shift, DMSO zero; calls only at 9.99 µM; actives 1.5% (n = 340,000); AID 651658;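 active means melting point raised past a set limit in the mean and every replicate; inconclusive means no clear call; three in four hits are not shown here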
# Target sequence (Q9HCT0 whole entry, looked up): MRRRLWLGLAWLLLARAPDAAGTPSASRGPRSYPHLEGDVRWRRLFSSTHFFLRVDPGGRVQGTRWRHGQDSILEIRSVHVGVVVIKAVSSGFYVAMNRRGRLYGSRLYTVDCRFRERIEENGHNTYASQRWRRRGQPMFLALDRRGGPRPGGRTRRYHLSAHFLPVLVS
# RanGTP-Imp inh – inhibitors of RanGTP-importin-beta interaction, primary screen, biochemical, FRET, CFP-Ran, YFP-importin-beta, homogeneous; cell-free CFP-Ran/YFP-importin-beta FRET ratio; inhibition, % (test concentration not listed); AID 2216; actives 1.1% (n = 300,000);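 active means most replicates above 15%; inconclusive means exactly half above 15%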;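 further: 0% = DMSO wells and 100% = Ran loaded with GDP instead of GTP; wells of about 40 µL received 100 nL stock; the first replicate is given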
# T cruzi repl – T. cruzi replication inhibition. T. cruzi beta-gal in NIH3T3, luminescence, 90 h. actives 1.4% (n = 300,000). inhibition, % (test concentration not listed);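 active means mean inhibition across valid replicates above about 55%, limit read from the data; inconclusive means mean below that limit but half or more replicates reach it; inactive means mean below it, under half of replicates reach it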;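 further: signal also drops with host cell toxicity which is not excluded here; 0% = plate median of DMSO wells and 100% = zero luminescence signal; higher percent means less beta-gal luminescence so fewer parasites; stock transfer was 50 nL into about 50 µL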
# ALR inh – blocks human ALR sulfhydryl oxidase activity; P55789; purified ALR, DTT oxidation, H2O2 HRP-luminol luminescence; inhibition, % (no concentration beside the values); actives 3.8% (n = 290,000); AID 485317;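 active means mean and each replicate at 75% or more; inconclusive means only one of the two met; inactive means neither met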;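 further: stock transfer was 7.5 nL into about 7.5 µL; 0% = neutral wells and 100% = wells with inactivated enzyme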
# Target sequence (P55789 whole entry, looked up): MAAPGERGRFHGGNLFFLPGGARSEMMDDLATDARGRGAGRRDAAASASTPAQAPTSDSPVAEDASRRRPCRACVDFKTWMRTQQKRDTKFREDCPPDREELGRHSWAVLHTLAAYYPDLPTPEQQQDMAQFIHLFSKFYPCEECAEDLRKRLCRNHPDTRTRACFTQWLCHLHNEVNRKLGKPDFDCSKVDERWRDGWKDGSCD
# Calb FLC – affects C. albicans growth with fluconazole | growth inhibition, % (test concentration not listed) | C. albicans CaCi-2 (fluconazole-resistant clinical isolate) + fluconazole, Alamar Blue growth, 48 h | actives 0.57% (n = 300,000) | AID 1979;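 active means most replicates above 75%; inconclusive means exactly half above 75%; inactive means most below 75%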;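 further: all wells also contain fluconazole at 8 µg/ml as a sub-toxic cotreatment; 0% = median of DMSO wells and 100% = median of geldanamycin control wells; wells of about 8 µL received 7.5 nL stock; the first replicate is given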
# Ecoli rRNA inh OD600 – also measured in Ecoli rRNA inh; calls as there; OD600 change, %; measured here: OD600 growth;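 optical density of the mix in the first replicate; 0 = DMSO median and -100 = no signal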
# Ecoli rRNA inh RFP – also measured in Ecoli rRNA inh; calls as there; RFP signal change, %; measured here: RFP humanized mutant strains;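 first replicate; 0 = DMSO median and -100 = no signal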
# Active calls of the source: *; i = inactive; u = inconclusive; x = no result given; & = joins results of further samples. This is a subset. The share of hits here may be higher or lower than overall.
1) CC(=O)Nc1ccc(NC(=O)COC(=O)Cn2cnc3ccccc32)cc1
2) COc1ccc(-c2noc(COC(=O)c3ccco3)n2)cc1OC
3) COc1ccc(C(=O)N2CCN(C(=O)Cc3ccccc3)CC2)cc1OC
4) O=C(Nc1ccccc1)C1=C[C@H](c2ccccc2)C[C@H](OCCCCO)O1
5) [O-][n+]1cccc2ncc3cscc3c21
6) COC(=O)C1=C(O)/C(=C\c2cc(C)n(-c3ccccc3C)c2C)N=C1C

screen / no.	1	2	3	4	5	6
Ecoli rRNA inh	20	-13	8	5	9	10
Ecoli rRNA inh OD600	10	-9	10	10	7	6
Ecoli rRNA inh RFP	0.4	1.1	-0.2	2.3	-0.6	-1.0
Beta cell apopt	4	-4	1	3	-2	0
MLL AF4-AF9 inh	-2.2	-2.7	x	0.0&-3.3	-1.1	12
FGF22 binding	i	i	x	i	i	i
RanGTP-Imp inh	x	x	4.7	2.7	-5.4	20*
T cruzi repl	x	x	-2	5	3	-10
ALR inh	-2	x	-3	2	-21	x
Calb FLC	x	x	3	-2	u	13

7) CCCCOc1ccc(C(=O)Nc2ccc(S(=O)(=O)Nc3cc(C)on3)cc2)cc1OC
8) CC(OC(=O)/C=C/c1cccs1)C(=O)NC1CCCCC1C (stereo not drawn)
9) O=C(CCS(=O)(=O)c1ccc(Br)cc1)NCc1ccc(F)cc1
10) COCC(=O)Nc1nc2ccc(C)cc2s1
11) CCOC(=O)c1ccc(NC(=O)NC2CC3CCC(C2)N3Cc2nnnn2C(C)(C)C)cc1 (stereo not drawn)
12) Cn1c(=O)c([N+](=O)[O-])c(NCC2CCCO2)c2ccccc21 (stereo not drawn)

screen / no.	7	8	9	10	11	12
Ecoli rRNA inh	16	14	8	x	x	0
Ecoli rRNA inh OD600	5	9	16	x	x	-4
Ecoli rRNA inh RFP	1.2	5.0	2.6	x	x	2.1
Beta cell apopt	-4	0	-4	-1	1	-12
MLL AF4-AF9 inh	x	0.9	-16	x	x	0.6
FGF22 binding	x	i	i	x	x	i
RanGTP-Imp inh	-1.6	5.4	1.8	u	4.3	-0.4
T cruzi repl	2	2	-1	44	2	x
ALR inh	-14	2	0	x	0	x
Calb FLC	-5	-12	34	-4	-2	-7

13) NNC(=O)c1csc(-c2ccccc2)n1
14) O=C(CNC(=O)c1cccnc1)N/N=C/c1cccnc1
15) CS(=O)(=O)c1ccccc1C(=O)Nc1ccc(S(=O)(=O)N2CCCC2)cc1
16) Cc1ccc(C)c(N2CCN(CC3CC=CCC3)CC2)c1 (stereo not drawn)
17) CCCCCCCNC(=O)c1cc(-c2ccncc2)nc2ccccc12
18) O=C(Nc1ccccc1Cl)N1CCN(c2ncccn2)CC1

screen / no.	13	14	15	16	17	18
Ecoli rRNA inh	-2	13	14	x	0	x
Ecoli rRNA inh OD600	0	23	23	x	3	x
Ecoli rRNA inh RFP	-2.2	0.1	0.5	x	0.0	x
Beta cell apopt	-6	-1	-5	10	3	0
MLL AF4-AF9 inh	-3.0	-0.9	0.6	x	-16	x
FGF22 binding	i	i	i	x	i	x
RanGTP-Imp inh	0.0	-3.6	x	1.6	6.6	2.9
T cruzi repl	-7	-2	x	12	57*	10
ALR inh	8	-3	-8	1	-2	0
Calb FLC	5	-3	x	-22	6	-5

19) COc1ccccc1NC(=O)c1cccc(S(=O)(=O)N2CCN(Cc3ccccc3)CC2)c1
20) Cc1ccc(/C([O-])=C(/C(=S)NCc2ccc3c(c2)OCO3)[n+]2ccc(N(C)C)cc2)c(C)c1
21) COc1ccc2c(c1)C(c1ccc(N3CCOCC3)cc1)=NNC(c1cccnc1)=N2
22) O=C(Nc1cn(-c2ccccc2)nc1-c1ccc(Cl)cc1)c1ccccc1
23) C=C(C)c1cccc(C(C)(C)NC(=O)NC2CCCC2)c1
24) CCN(CC)CCCNC(=O)C1c2ccccc2C(=O)N(CCOC)C1c1ccc(F)cc1 (stereo not drawn)

screen / no.	19	20	21	22	23	24
Ecoli rRNA inh	-11	-11	-17*	x	x	11
Ecoli rRNA inh OD600	-13	-2	6.5*	x	x	3
Ecoli rRNA inh RFP	-2.9	-1.6	2.7*	x	x	-0.3
Beta cell apopt	-1	4	-5	6	0	-1
MLL AF4-AF9 inh	7.3	14	4.8	x	x	-0.9
FGF22 binding	i	i	i	x	x	i
RanGTP-Imp inh	3.6	-2.7	-1.3	-1.6	1.1	3.3
T cruzi repl	9	u	0	17	8	-14
ALR inh	-15	-22	5	-6	14	x
Calb FLC	x	-11	-2	22	-39	4

# Record cards (already shown):
# COc1ccc2c(c1)C(c1ccc(N3CCOCC3)cc1)=NNC(c1cccnc1)=N2 across the screens: Ecoli rRNA inh = -17*; Ecoli rRNA inh OD600 = 6.5*; Ecoli rRNA inh RFP = 2.7*; Beta cell apopt = -5; MLL AF4-AF9 inh = 4.8; FGF22 binding = i; RanGTP-Imp inh = -1.3; T cruzi repl = 0; ALR inh = 5; Calb FLC = -2
# CCN(CC)CCCNC(=O)C1c2ccccc2C(=O)N(CCOC)C1c1ccc(F)cc1 (stereo not drawn) across the screens: Ecoli rRNA inh = 11; Ecoli rRNA inh OD600 = 3; Ecoli rRNA inh RFP = -0.3; Beta cell apopt = -1; MLL AF4-AF9 inh = -0.9; FGF22 binding = i; RanGTP-Imp inh = 3.3; T cruzi repl = -14; ALR inh = x; Calb FLC = 4
# C=C(C)c1cccc(C(C)(C)NC(=O)NC2CCCC2)c1 across the screens: Ecoli rRNA inh = x; Ecoli rRNA inh OD600 = x; Ecoli rRNA inh RFP = x; Beta cell apopt = 0; MLL AF4-AF9 inh = x; FGF22 binding = x; RanGTP-Imp inh = 1.1; T cruzi repl = 8; ALR inh = 14; Calb FLC = -39

# Continuation.
25) CCCCNC(=O)COC(=O)CCC(=O)c1ccc(Cl)cc1
26) CC(Oc1ccc(Cl)cc1Cl)c1ccn[nH]1 (stereo not drawn)
27) C[n+]1ccc(C(=O)NCCC[N+](C)(C)C)cc1/C=N/O
28) COc1ccccc1N=Nc1ccc(O)c2ncccc12
29) Cc1ccc2c(c1)N(CCCC(=O)NCc1ccc3c(c1)OCO3)C(=O)CO2
30) COc1ccc(C)cc1NC(=O)Cn1c(=O)oc2ccccc21

screen / no.	25	26	27	28	29	30
Ecoli rRNA inh	-3	-56	27	-8	4	13
Ecoli rRNA inh OD600	5	-73	21	2	7	17
Ecoli rRNA inh RFP	-0.2	-19	3.0	-3.6	-1.2	0.1
Beta cell apopt	0	-6	-2	20	-2	-6
MLL AF4-AF9 inh	-2.5	0.5	-1.5	72*	0.2	-30
FGF22 binding	i	i	i	i	i	i
RanGTP-Imp inh	u	3.6	0.5	0.9	5.1	-1.9
T cruzi repl	-1	-2	0	46	-13	1
ALR inh	2	3	-3	x	0	-1
Calb FLC	-7	-37	2	97*	-14	2

31) CCCCN(C(=O)CNC(=O)c1cccs1)C(C(=O)NC1CCCC1)c1ccncc1 (stereo not drawn)
32) Cc1cc(C)n(S(=O)(=O)c2ccccc2[N+](=O)[O-])n1
33) C=CCOc1cccc(C2C(C(=O)c3ccco3)=C(O)C(=O)N2Cc2ccco2)c1 (stereo not drawn)
34) CNC(=O)C(C#N)(Cc1cc(C(C)=O)ccc1OC)Cc1cc(C(C)=O)ccc1OC
35) CC(=O)N=c1sccn1CC(O)c1ccc(Br)cc1 (stereo not drawn)
36) O=C(c1ccccc1)C(C(=O)N1CCc2ccccc2C1)n1ccccc1=O (stereo not drawn)

screen / no.	31	32	33	34	35	36
Ecoli rRNA inh	13	4	-6	6	0	x
Ecoli rRNA inh OD600	-1	1	-11	-1	-8	x
Ecoli rRNA inh RFP	1.0	8.4	2.2	2.8	-1.9	x
Beta cell apopt	x	-5	-1	0	x	2
MLL AF4-AF9 inh	0.6	-0.8	-0.1	1.2	-5.4	x
FGF22 binding	i	i	i	i	i	x
RanGTP-Imp inh	0.2	-1.3	0.5	-0.4	1.8	-1.7
T cruzi repl	10	-7	-2	-1	-11	-6
ALR inh	-1	1	5	x	-4	-4
Calb FLC	7	15	24	-2	-9	-4

37) Cc1ccc(S(=O)(=O)N(CC(=O)Nc2cccc(C(F)(F)F)c2)C(=O)N2CCN(C)CC2)cc1
38) O=C(NCCCCc1ccccc1)c1cccc([N+](=O)[O-])c1
39) Cc1ccnc(N2C(=O)c3ccccc3C2Nc2ccccc2Cl)c1 (stereo not drawn)
40) O=C(O)C(c1ccccc1)N1C(=O)/C(=C\c2ccc(-c3ccccc3Cl)o2)SC1=S (stereo not drawn)
41) O=C(N/N=C/C=C\c1ccccc1[N+](=O)[O-])c1cc(-c2ccccc2)nc2ccccc12
42) CCOC(=O)N1CCN(C(=O)c2ccccc2Oc2ccccc2)CC1

screen / no.	37	38	39	40	41	42
Ecoli rRNA inh	2	-6	-5	-5	x	x
Ecoli rRNA inh OD600	7	-10	-24	0	x	x
Ecoli rRNA inh RFP	-0.3	-7.2	-7.4	5.9	x	x
Beta cell apopt	-5	5	-2	x	9	1
MLL AF4-AF9 inh	-3.3	0.1	-1.6	0.3	x	x
FGF22 binding	i	i	i	i	x	x
RanGTP-Imp inh	6.1	1.3	u	-26	3.0	0.1
T cruzi repl	-7	21	19	-3	-20	1
ALR inh	-8	6	-3	x	-10	3
Calb FLC	-1	-24	2	33	8	-2

# Structures listed so far that bear a hit mark in MLL AF4-AF9 inh:
no.	mol	Ecoli rRNA inh	Ecoli rRNA inh OD600	Ecoli rRNA inh RFP	MLL AF4-AF9 inh	FGF22 binding	RanGTP-Imp inh	ALR inh
28	COc1ccccc1N=Nc1ccc(O)c2ncccc12	-8	2	-3.6	72*	i	0.9	x

# The listing continues.
43) Nc1cc(Cl)c(N)cc1Cl
44) CN(C)N=Nc1ccc(S(=O)(=O)/N=C(\O)c2ccccc2)cc1
45) O=C(Cn1cnc2c(nnn2Cc2ccc(F)cc2)c1=O)NCC1CCCO1 (stereo not drawn)
46) CCC(=O)Nc1cc(Cl)ccc1N1CCN(C(=O)CC)CC1
47) CC1=C([N+](=O)[O-])C(c2ccc(Cl)cc2)NC(=O)N1C (stereo not drawn)
48) CCOc1ccccc1NC(=O)N1CCCC1C(=O)NCc1cccs1 (stereo not drawn)
49) O=C(CN(C(=O)c1csnn1)c1ccc(Br)cc1)NC1CCCC1
50) CC1Cn2c(nnc2-c2cccs2)S1 (stereo not drawn)
51) O=C(COC(=O)/C=C/c1ccccc1[N+](=O)[O-])Nc1ccc2[nH]c(=O)[nH]c2c1

screen / no.	43	44	45	46	47	48	49	50	51
Ecoli rRNA inh	x	-8	x	x	-1	-1	8	x	-10
Ecoli rRNA inh OD600	x	-3	x	x	-1	15	9	x	-4
Ecoli rRNA inh RFP	x	-1.8	x	x	-1.5	2.1	0.9	x	-2.5
Beta cell apopt	x	0	-1	3	-6	2	-5	x	-2
MLL AF4-AF9 inh	x	-1.3	x	x	1.8	-4.3	-0.8	x	-0.6
FGF22 binding	x	i	x	x	i	i	i	x	i
RanGTP-Imp inh	13	-1.0	-0.1	2.5	-3.1	2.2	-3.0	u	x
T cruzi repl	-3	2	-8	6	-2	1	-6	-12	x
ALR inh	35	-3	-4	-6	13	x	0	-4	x
Calb FLC	-12	33	13	-11	2	0	-6	u	x
